LT uptake inh – qHTS Assay for Anthrax Lethal Toxin Internalization. 0.67% of 70,000 active. Cells, anthrax lethal toxin internalization, FRET ratio (460/530). Potency, µM (highest dose often 40 µM), for the others: at the top dose activity change, negative = inhibition, hits mostly inhibitors; active = well fitted falling ratio curve with the 530 nm signal flat; inconclusive = other ratio curves, or a change in one channel alone; inactive = flat curves in the ratio and both channels; the % refers to the ratio; note: % is set by controls: 0 for no effect and ±100 for the full control effect; nearly all actives have a fitted effect of over 50% in size; tested in ME-180 cells; beta-lactamase reporter
SmPrx2 inh – Schistosoma Mansoni Peroxiredoxins (Prx2) | S. mansoni Prx2 activity coupled to TGR/GSH (TGR is thioredoxin glutathione reductase), NADPH fluorescence loss, qHTS; some inactives read as strong as hits | AID 448, 2006 | 0.07% of 65,000 active | Potency, µM | Schistosoma mansoni peroxiredoxin 2 (Prx2); active means full or partial inhibition curve with a strong effect at the top dose; inconclusive means weaker partial or single-point curve; inactive means no accepted curve; note: series up to 57 µM; many of its hits are not listed in these tables
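Purified S. mansoni TGR and Prx2 in pH 7.4 phosphate buffer with EDTA and Tween-20 were preincubated with compounds for 15 min. Further NADPH/GSH was added, then a 2.5 mM H2O2 aliquot initiated turnover, followed kinetically by NADPH fluorescence.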
Active calls of the source: *; ? = inconclusive; · = not tested or not shown; & = joins results of further samples; [ ] = remark or other dose. Potency is the fitted concentration of half-maximal effect.

SMILES	LT uptake inh	SmPrx2 inh
O=C(Nc1ccc2c(c1)OCO2)C(c1ccc(Cl)cc1)N1CCC2(CC1)OCCO2 (stereo not given)	9%	>57
c1ccc2sc(SCc3ccc(-c4nnco4)cc3)nc2c1	?	>57
O=C1CC(c2ccc3c(c2)OCO3)CN1 (stereo not given)	·	>57
COC(=O)c1ccc2c(=O)n(CCN3CCOCC3)c(=S)[nH]c2c1	9%	>57
COc1ccc(-c2ccc(SCC(=O)N3CCCC3)nn2)cc1OC	-5%	>57
CC(C)N(Cc1ccccc1)C(=O)COC(=O)c1ccc2c(c1)OCCO2	-1%	>57
CC1CN(c2oc(COc3ccc(Cl)cc3Cl)nc2C#N)CC(C)O1 (stereo not given)	?	·
CCOc1ccc(-c2nc(-c3ccccc3)no2)cc1OCC	?	>57
Cc1ccc(S(=O)(=O)NCC(=O)OC2CCOC2=O)cc1 (stereo not given)	-4%	>57
CC(C)(C)/C(O)=C(/C#N)c1nc2ccccc2[nH]1	11%	>57
Cc1cc(C)n2cc(CSc3nc4cc(Cl)ccc4o3)nc2n1	-4%	>57
O=C(CN(C(=O)CCC(=O)Nc1nccs1)c1ccccc1F)NCC1CCCO1 (stereo not given)	4%	>57
COC(=O)c1oc2ccc(Br)cc2c1-n1cccc1	-10%	>57
CC1CCN(c2ccc(C(=O)NCc3cccs3)cn2)CC1	-14%	>57
Cc1ccc(P(=Nc2ccccc2)(N2CCOCC2)N2CCOCC2)o1	-1%	>57
Cc1cc(C)n(-c2nc3c(c(=O)n(Cc4ccc(Cl)c(Cl)c4)c(=O)n3C)n2C)n1	-7%	>57
Cc1ccc(-n2c(=O)[nH]cc(C(=O)Nc3ccc4c(c3)OCCO4)c2=O)cc1C	20%	>57
COC(=O)C1CCN(S(=O)(=O)Cc2ccccc2)CC1	2%	>57
CN(C)S(=O)(=O)c1ccc(Nc2ccc(O)c3c2C(=O)c2c([N+](=O)[O-])ccc(O)c2C3=O)cc1	?	>57
CCOC(=O)Cn1c(=O)oc2cc(S(=O)(=O)Nc3ccc(F)cc3)ccc21	?	>57
COc1ccc(OC)c2[nH]c(=O)c(CCNC(=O)c3ccc(S(=O)(=O)N4CCCC4)cc3)cc12	13%	>57
Cc1ccccc1NC(=O)Cc1nnc(SCC(=O)N2CCN(c3ccccc3)CC2)n1C	5%	>57
Cc1n[nH]c(=O)nc1N1CCN(c2ccccc2)CC1	-1%	>57
c1ccc2[nH]c(NCCCN3CCOCC3)nc2c1	-7%	>57
O=C(O)C[C@H](Nc1ccccc1)C(=O)O	-4%[8 µM]	>57
CCOC(=O)c1sc(NC(=O)c2cccc(S(=O)(=O)N3CCN(C)CC3)c2)cc1C	-19%	·
O=C(CSc1nnc(-c2ccc(Cl)s2)o1)N1CCCc2ccccc21	-4%	>57
O=c1[nH]cc(CS(=O)(=O)Cc2c[nH]c(=O)[nH]c2=O)c(=O)[nH]1	-13%[8 µM]	>57
O=C(CCCCn1c(=O)[nH]c2ccccc2c1=O)NC1CCN(Cc2ccccc2)CC1	-14%	>57
Cc1ccc(NC(=O)COc2nc(C)cs2)cc1	0%	>57
Cc1ccccc1-n1nc2c(c1NC(=O)c1c(-c3ccccc3Cl)noc1C)CS(=O)(=O)C2	3%	>57
CCOC(=O)c1ccc(NS(=O)(=O)c2cc(C)ccc2OC)cc1	-4%	>57
O=C(c1cnccn1)N1CCC2(CCN(Cc3ccncc3)CC2)CC1	?	>57
CCNc1nc(N)nc(Oc2ccc(OCCOc3ccccc3)nn2)n1	-15%	>57
O=C(CCCn1c(=S)[nH]c2cc3c(cc2c1=O)OCO3)N1CCc2ccccc2C1	·	>57
O=C(NCCOC(=O)c1cccs1)c1cccnc1	3%	>57
Cc1oc(-c2ccc(F)cc2)cc1-c1nn2c(-c3ccco3)nnc2s1	-29%	>57
CCN=C(N)CSS(=O)(=O)O	-15%[8 µM]	>57
COc1ccc(Oc2ncc3nc(C)c(=O)n(C)c3n2)cc1	-8%	>57
CCc1cccc2c1NC(=O)[C@]21[C@@H]2C(=O)N(Cc3ccccc3)C(=O)[C@@H]2[C@@H]2CCCN21	-8%	>57
CC(C)OCCCNC(=O)CN1CCN(Cc2ccccc2Cl)C1=O	?	>57
N#Cc1ccc(OC(=O)c2ccc(N=C(N)N)cc2)cc1	-23%[8 µM]	>57
O=c1c(-c2ccco2)[n+]([O-])c2ccccc2n1OCc1ccccn1	-5%	?
O=C(CCCC(=O)NCC1CCCO1)NCC1CCCO1 (stereo not given)	-5%	·
COC(=O)c1cc(OC)c(OC)cc1NC(=O)CSc1nnc(-c2cccnc2)n1C	3%	>57
CCC(=O)N1CCCc2cc(S(=O)(=O)N3CCN(c4ncccn4)CC3)ccc21	3%	>57
COc1ccc(CN(CC(=O)NC2CCCC2)C(=O)c2onc(C(N)=O)c2N)cc1	-5%	>57
COc1ccc(N2CCN(C(=O)C3CCC(Cn4c(=S)[nH]c5ccccc5c4=O)CC3)CC2)cc1 (stereo not given)	?	>57
O=C(O)c1ccc(N[C@H](c2ccccc2)c2ccc3cccnc3c2O)cc1	-15%[8 µM]	·
CCCCc1cc(=O)oc2cc(OCC(=O)N(CC)CC)ccc12	2%	>57
COc1cccc(-c2cncnc2-n2ccnc2)c1	8%	>57
CCc1nnc(NC(=O)CSc2nnc(-c3ccccc3O)n2-c2ccc(C)cc2C)s1	6%	>57
CC(C)(C)c1ccc(NC(=O)NCc2ccco2)cc1	-30%	·
O=C(c1ccco1)N1CCN=C1SCc1ccccc1Cl	-22%	>57
Cc1nc(NC2CCCCC2)c2nc(-c3ccccc3)n(CCCN3CCCCC3C)c2n1 (stereo not given)	-26%	·
O=C(COc1ncnc2ccccc12)NCc1ccc2c(c1)OCO2	1%	>57
CCC(=O)Nc1cccc(NC(=O)CSc2nnnn2Cc2ccccc2)c1	-13%	>57
CCNC(=O)CN(CCc1ccccc1)S(C)(=O)=O	1%	>57
CCCC(=O)c1cn(CC(=O)OC)c2ccccc12	10%	>57
Cn1c(Cc2ccccc2)nnc1SCC(=O)Nc1ccc2c(c1)OCCO2	0%	>57

Next part
SMILES	LT uptake inh	SmPrx2 inh
Cc1cccc(C)c1NC(=O)CSc1nnc(Cn2nnc(-c3ccccc3)n2)n1-c1ccccc1	?	>57
OC(c1ccc(Cl)cc1)(c1ccc(Cl)cc1)C(Cl)(Cl)Cl	?	·
COc1ccccc1N1CCN(C(=O)Cc2cccs2)CC1	-6%	·
CCN(CC)S(=O)(=O)c1ccc(NC(=O)c2cccc3c2C(=O)N(CCOC)C3)cc1	?	>57
Cn1cc(-c2nc3cncnc3n(Cc3ccc(F)cc3)c2=O)c2ccccc21	?	>57
COc1ccc(-n2c(C)cc(C(=O)Cn3nnc4ccccc4c3=O)c2C)cc1	2%	>57
COC(=O)C/C=C/C(C)C(OC)c1ccccc1Br (stereo not given)	2%[8 µM]	·
COc1ccc(CCNC(=O)CN2CCC(C(N)=O)CC2)cc1	-6%	>57
CCCCNC(=O)CCCCCn1c(=O)[nH]c2cc(OC)c(OC)cc2c1=O	9%	>57
COc1ccc(NC(=O)N2CC3(CCN(C(=O)c4cccc(F)c4)CC3)C2)cc1	11%	>57
Cc1cc(C(=O)Cn2cncn2)c(C)n1CCc1ccc(F)cc1	-20%	>57
Cc1ccc(-c2ccc(CCC(=O)O)n2NC(=O)c2ccco2)cc1	?	>57
COCC(=O)Nc1cc(OC)c(Cl)cc1OC	19%	>57
CCOCCc1c(O)nc(SCC(=O)NCc2ccco2)[nH]c1=O	-7%	>57
CC(C)C(=O)Nc1ccc(NC(=O)c2cccc(F)c2)cn1	-3%	>57
CCOC(=O)N1CCC(N2C(=O)c3ccccc3C2=O)CC1	-9%	>57
CN1C(=O)CCS(=O)(=O)[C@H]1c1ccc(Cl)cc1	?	>57&>57
Cc1ccc(C(=O)Nc2ccccc2NC(=O)c2ccc(C)o2)o1	-12%	·
COc1cccc(CN2C(=O)CN(C3CCCCC3)C(=O)C2c2ccc(F)cc2)c1 (stereo not given)	·	>57
OC1(c2ccc3c(c2)OCO3)CCN(Cc2ccccn2)CC1	-4%	>57
CCC(C)NS(=O)(=O)c1ccc(OCC(=O)NCc2cccnc2)cc1 (stereo not given)	-2%	>57
CCCC[C@@H]1C[C@H]1C(NC(=O)c1ccccc1)c1ccc(C(=O)OC)cc1 (stereo not given in full)	?	>57
CC(C)CN1CCC2(CC1)CCN(S(=O)(=O)c1ccccc1)CC2	-17%	>57
Cc1ccc2cc(C#N)c(N3CCCN(S(=O)(=O)c4ccccc4)CC3)nc2c1	?	>57
O=C(O)c1cc(S(=O)(=O)N2CCOCC2)c(Sc2ccccn2)cc1Sc1ccccn1	1%	·
CC1CCN(c2nc3c(c(=O)[nH]c(=O)n3C)n2Cc2ccccc2)CC1	21%	>57
CCCCCCCC1=CC2=CC(=O)C(C)(OC(C)=O)C(=O)C2=CN1CCc1ccccc1 (stereo not given)	-7%[8 µM]	·
CC(C)NC(=O)CSc1nc2ccccc2n1CC(=O)N1CCc2ccccc21	-7%	>57
N#CC(C#N)=Cc1ccc([N+](=O)[O-])c(O)c1	-1%	?
c1ccc2c(c1)CCCN2Cc1nnc2n1CCCCC2	-3%	>57

Reprinted at random: 3 records from the list.
SMILES	LT uptake inh	SmPrx2 inh
COc1ccc(-c2ccc(SCC(=O)N3CCCC3)nn2)cc1OC	-5%	>57
COC(=O)c1ccc2c(=O)n(CCN3CCOCC3)c(=S)[nH]c2c1	9%	>57
CC(C)NC(=O)CSc1nc2ccccc2n1CC(=O)N1CCc2ccccc21	-7%	>57

Going on with the list.
SMILES	LT uptake inh	SmPrx2 inh
CCC(=O)Nc1ccc2c(c1)C(=O)N(C1CCCCC1)C2=O	-9%	>57
O=C1Nc2ccccc2C1=Nc1cccc2ncccc12	3%[8 µM]	>57
O=C1c2ccccc2N[C@H](c2cc(Cl)cc(Cl)c2O)N1CCc1ccccn1	0%[8 µM]	>57
CCOc1ccc2nc(SCC(=O)NC3CCS(=O)(=O)C3)[nH]c2c1 (stereo not given)	-12%	>57
COc1ccc(C(=O)N2CCC3(CCN(CC(C)C)CC3)CC2)cc1	17%	>57
N#Cc1ccccc1NC1=CC(=O)CCC1	0%	·
CCOC(=O)CSc1nc2c([nH]c3ccccc32)c(=O)n1C	17%	>57
COC(=O)[C@H](N)CCCN=C(N)N[N+](=O)[O-]	4%	>57
COc1ccc(C(=O)c2ccc(OC)cc2O)c(O)c1	?	>57
Cc1cc(C)nc(/N=C2\NC(=O)CC(C(=O)O)N2c2ccc(Oc3ccccc3)cc2)n1 (stereo not given)	-13%	>57
Cc1ccc(C)c(NC(=O)NCc2ccc(Cl)cc2)c1	-10%[8 µM]	>57
CC(=O)Nc1ccc2nc(-c3cccnc3)[nH]c2c1	6%	>57
CCCCn1c(N)c(N(CCC(C)C)C(=O)COC(=O)c2ccco2)c(=O)[nH]c1=O	3%	>57
CC1CCN(c2nnc(N)s2)CC1	1%	·
CCOC(=O)CNC(=O)CSc1nc2ncc(Br)cc2[nH]1	10%	>57
COc1ccc(N2CCN(c3oc(COc4ccc(Cl)cc4Cl)nc3C#N)CC2)cc1	1%	>57
COc1ccccc1C(c1nnnn1C(C)(C)C)N1CCCCCC1 (stereo not given)	-13%	>57
O=C(CCCn1c(=O)[nH]c2cc(Cl)ccc2c1=O)NCCCN1CCCC1	-9%	>57
COc1ccccc1NC(=O)c1cc(S(=O)(=O)N2CCOCC2)ccc1Cl	-8%	>57
COCCCNC(=O)CCn1c(=O)c2ccccc2n(CC(=O)Nc2cc(Cl)ccc2C)c1=O	2%	>57
CN(C)c1nc(N)nc(CSc2n[nH]c(-c3ccccc3)n2)n1	?	>57
CC(=O)Nc1ccc(C(=O)CSc2nnnn2C(C)C)cc1	-1%	>57
COc1ccc(NC(=O)Cn2nnc(C(=O)NCc3ccccc3)c2N)cc1Cl	8%	>57
COC(=O)c1cc(NCc2ccccc2F)ccc1N1CCOCC1	4%	>57
COc1cc2[nH]c(=S)n(NC(=O)CC(C)C)c(=O)c2cc1OC	9%	>57
O=C(c1cccc(Cl)c1)N(Cc1cccs1)C1CCS(=O)(=O)C1 (stereo not given)	?	>57
Cc1cc2nc(SC(C)C(=O)O)[nH]c2cc1C (stereo not given)	3%	>57
N#CCC(=O)N1CCn2c1nc1ccccc12	3%	>57
O=C(NCCN1CCOCC1)c1noc2c1CCc1ccccc1-2	-1%	>57
CC(C)(C)OC(=O)N1CCC[C@@H]1C(=O)N1CCC(C(=O)O)CC1	?	>57
O=C(OCC(=O)N1CCN(C(=O)c2ccco2)CC1)C1=COCCO1	-8%	>57
Cc1ccc(N)cc1CN1CCCC1=O	?	>57
COC(=O)N1CC=CC1(C)C(=O)NCc1cc(F)cc(C(F)(F)F)c1 (stereo not given)	-4%	·
Clc1ccc(NC2=NCCC2)cc1Cl	-8%	>57

A portion of the library, so the mix of outcomes need not match the whole.
